# Screens deposited in PubChem BioAssay by National Center for Advancing Translational Sciences (NCATS).
# SARS PLP yeast = blocks SARS-CoV papain-like protease in a yeast assay; S. cerevisiae expressing SARS-CoV PLpro, growth rescue; control for the full effect not named in the record; Potency, µM (doses to about 32.9 µM), without a hit: top-dose activity, positive = growth rescue; actives 0.19% (n = 330,000); active means well fitted rising curve with a large enough effect; inconclusive means small, poorly fitted or top-dose-only effect; inactive means no such curve, though single readings can be large or run the other way; further: 0% is about no effect; nearly all actives have a fitted effect of over 55% in size; growth read by luminescence after 48 h
# StopGo reporter = lowers the luciferase signal of an FMDV 2A StopGo reporter; human cells with a luciferase reporter of 2A StopGo recoding; control for the full effect not named in the record; actives 1.2% (n = 410,000); Potency, µM (highest dose often 57.9 µM), without a hit: at the top dose signal change, negative = less light; active = well fitted falling curve with a large enough effect; inconclusive = small, poorly fitted or top-dose-only effect; inactive = no such curve, though single readings can be large or run the other way; tested in HEK293T cells; further: on the % scale 0 is the no-effect control and ±100 the full control effect; nearly all actives have a fitted effect of over 45% in size; luciferase light after 4 h
# RE007 growth inh = less growth of the S. pombe RE007 Vpr strain | S. pombe RE007 Vpr strain, BacTiter-Glo ATP luminescence, 24 h; control for the full effect not named in the record | Potency, µM (doses to about 92.2 µM), without a hit: top-dose activity change, negative = less growth | actives 0.21% (n = 360,000) | AID 651644; active = well fitted falling curve with a large enough effect; inconclusive = small, poorly fitted or top-dose-only effect; inactive = no such curve, though single readings can be large or run the other way;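 further: on the % scale 0 is the no-effect control and ±100 the full control effect; nearly all actives have a fitted effect of over 50% in size; the assay follows cell death caused by Vpr and the record does not say whether a fall means rescue or toxicity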
#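 Fission yeast RE007 carrying one integrated HIV-1 vpr copy, seeded at OD 0.01 in PMG+AL medium with 23 nL pinned compound. Grown 24 h at 30 degrees; viability read by BacTiter-Glo luminescence after 5 min.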
# Active calls of the source: *; ? = inconclusive; [ ] = remark or other dose. Potency means the concentration at half of the fitted maximal effect.
entry	compound	SARS PLP yeast	StopGo reporter	RE007 growth inh
1	O=C(/C=C/c1ccccc1)OCC(=O)N1CCCC1	8%	18%	-3%
2	COC(=O)CC1C(=O)NCCN1C(=O)CSc1nnnn1-c1ccc(OC)cc1 (stereo not given)	-1%	-3%	-2%
3	Cc1cc(NC(=O)COC(=O)c2cc(S(=O)(=O)N(C)C)ccc2Cl)no1	-14%	-24%	13%
4	COc1ccccc1C(=O)NC(CCSC)C(=O)NNC(=O)C(C)Oc1ccccc1F (stereo not given)	-1%	-19%	-17%
5	COCCCNC(=O)C[C@H]1C[C@H](C(=O)N2CCOCC2)[C@@]2(CCC3CCCC3)c3[nH]c4cc(-c5ccco5)ccc4c3CCN2C1=O	18%	-1%	17%
6	Cc1cc(OC(=O)c2ccc(S(=O)(=O)N(C)C)cc2)c([N+](=O)[O-])c(=O)[nH]1	1%	-3%	7%
7	O=C(COc1ccc(-n2cnnn2)cc1)Nc1ccc(F)c(F)c1F	-5%	-12%	1%
8	COc1ccccc1NC(=O)CS(=O)(=O)c1cn(CC(=O)N2CCOCC2)c2ccccc12	1%	-8%	8%
9	C#CCOCCOCCOCCNc1nc(N2CCN(C(=O)[C@H](CCC(=O)O)n3cc(CN)nn3)CC2)nc(N2CCN(C(=O)[C@H](CCC(=O)O)n3cc(CN)nn3)CC2)n1	-1%	-10%	10%
10	N=C1C(=O)OCC1c1ccccc1NC(=O)Nc1ccccc1 (stereo not given)	0%	-12%	10%
11	O=C(NCCCN1CCCC1=O)c1cccc(S(=O)(=O)Nc2ccccc2Cl)c1	-2%	-8%	-1%
12	O=C(NN1CCOCC1)c1ccco1	-1%	0%	2%
13	COc1ccc(N)cc1-n1cnnn1	0%	-11%	0%
14	O=C1C=C(c2cccc3c2oc2ccccc23)C[C@@H](c2ccc(F)cc2)C1	-2%	11%	-5%
15	CC1CCCCN1C(=O)c1ccc(C(=O)Nc2ccc(F)cc2)cc1 (stereo not given)	1%	-15%	-19%
16	O=C(COC(=O)C1COc2ccccc2O1)Nc1cccc(Cl)c1 (stereo not given)	-6%	-7%	-10%
17	CC(CC(=O)OCC(=O)NCc1ccc(Cl)cc1)c1ccccc1 (stereo not given)	-5%	-6%	?
18	Cc1cc(C)n(CCCNC(=O)c2ccco2)n1	3%	10%	-4%
19	CN(Cc1ccccc1)C(=O)c1ccc(NC(=O)Cc2cccc(NC(=O)C3CCN(C(=O)C4CCCCC4)CC3)c2)cc1	-6%	3%	1%
20	C[C@H](CO)N1C[C@H](C)[C@@H](CN(C)C(=O)Nc2ccc(C(F)(F)F)cc2)Oc2ccc(NS(=O)(=O)c3ccccc3)cc2C1=O	-7%	2%	-11%
21	COc1ccccc1CNC(=O)CN1C(=O)NC2(CCCC2)C1=O	-20%	-7%	-7%
22	Cn1c(=NC(=O)COc2ccccc2)sc2ccccc21	5%	68%[activator]	0%
23	Cc1noc(C(C)C)c1C(=O)Nc1ccc(-c2nnc3n2CCCCC3)cc1	-3%	-18%	-10%
24	COc1cccc(NC(=O)CN(C)CC(=O)c2c(C)[nH]c3ccccc23)c1	3%	?	8%
25	CCN1C(=O)C(=O)N(CC(=O)NC(C)CCc2ccccc2)C1=O (stereo not given)	-3%	-20%	-11%
26	O=C(CNCc1ccc(F)cc1)Nc1cc(S(=O)(=O)N2CCOCC2)ccc1Cl	-2%	-4%	-4%
27	CN(C)S(=O)(=O)c1ccc2oc(SCC(=O)Nc3ccccc3F)nc2c1	2%	38%[activator]	21%
28	COc1ccc(CC(=O)Nc2ccc(S(=O)(=O)N3CCN(C)CC3)cc2)cc1	-10%	-4%	-15%
29	C#CCOCCOCCOCCNc1nc(N2CCN(C(=O)[C@H](CCCCN)n3cc(CN)nn3)CC2)nc(N2CCN(C(=O)[C@H](CCCCN)n3cc(CN)nn3)CC2)n1	4%	1%	-9%
30	N#Cc1ccccc1COC(=O)c1ccc2c(c1)OCO2	4%	55%[activator]	-8%
31	CCC1Nc2ncnc(N3CCN(c4ccccc4)CC3)c2N(Cc2ccc(Cl)cc2)C1=O (stereo not given)	-4%	-29%	-11%
32	O=C(CSc1nc2ccccc2c(=O)n1-c1ccccc1)N1CCC1	-1%	2%	13%
33	CC(NC(=O)c1cccc(S(=O)(=O)N2CCc3ccccc32)c1)c1ccco1 (stereo not given)	0%	3%	6%
34	C[C@@H]1O[C@@H](O[C@H]2[C@H](O[C@H]3C[C@]4(C)C(C[C@@H](O)C5C([C@]6(C)CC[C@@H](C(C)(C)O)O6)CC[C@]54C)[C@@]4(C)CC[C@H](O)C(C)(C)C34)O[C@H](CO)[C@@H](O)[C@@H]2O)[C@H](O)[C@H](O)[C@H]1O (stereo not given in full)	18%	-16%	-26%
35	Cc1nnnn1/C(=C\c1ccccc1)C(=O)OCC(=O)Nc1cccc(S(=O)(=O)N(C)C)c1	1%	14µM*	-13%
36	CC(C)(C)N1C(=O)[C@H]2[C@@H](c3ccc(Br)cc3)N3C(=O)N(c4cccc(Cl)c4)C(=O)[C@@]3(C)[C@H]2C1=O	-5%	?	-10%
37	CCCCNC(=O)CCC(=O)Nc1ccc2nc(N3CCCCC3)cc(C)c2c1	4%	-1%	-19%
38	C[C@]12c3[nH]c4cc(-c5ccco5)ccc4c3CCN1C(=O)[C@@H](CC(=O)NCC13CC4CC(CC(C4)C1)C3)C[C@@H]2C(=O)N1CCCCC1	1%	-1%	5%
39	CCC(CO)Oc1cc(NCc2ccccn2)c2ncn(C(C)C)c2c1 (stereo not given)	4%	-1%	10%
40	O=C(NCC(=O)N1CCN(Cc2ccccc2)CC1)c1cc(Cl)cc([N+](=O)[O-])c1	-4%	?	9%

# Overlap with the part before: 6 compounds, then new ones.
entry	compound	SARS PLP yeast	StopGo reporter	RE007 growth inh
35	Cc1nnnn1/C(=C\c1ccccc1)C(=O)OCC(=O)Nc1cccc(S(=O)(=O)N(C)C)c1	1%	14µM*	-13%
36	CC(C)(C)N1C(=O)[C@H]2[C@@H](c3ccc(Br)cc3)N3C(=O)N(c4cccc(Cl)c4)C(=O)[C@@]3(C)[C@H]2C1=O	-5%	?	-10%
37	CCCCNC(=O)CCC(=O)Nc1ccc2nc(N3CCCCC3)cc(C)c2c1	4%	-1%	-19%
38	C[C@]12c3[nH]c4cc(-c5ccco5)ccc4c3CCN1C(=O)[C@@H](CC(=O)NCC13CC4CC(CC(C4)C1)C3)C[C@@H]2C(=O)N1CCCCC1	1%	-1%	5%
39	CCC(CO)Oc1cc(NCc2ccccn2)c2ncn(C(C)C)c2c1 (stereo not given)	4%	-1%	10%
40	O=C(NCC(=O)N1CCN(Cc2ccccc2)CC1)c1cc(Cl)cc([N+](=O)[O-])c1	-4%	?	9%
41	COCc1ccc(-c2c(-c3ccccc3OC)sc3cc4c(cc23)OCO4)cc1	4%	-19%	3%
42	Cc1ccsc1/C=N/Nc1ncnc2nc[nH]c12	0%	73%[activator]	0%
43	CCC(CO)Oc1cc(NCc2ccccc2OC)c2ncn(C(C)C)c2c1 (stereo not given)	-3%	1%	-16%
44	COc1ccc(S(=O)(=O)Nc2cccc3c2O[C@H](CN(C)S(=O)(=O)c2ccccc2)[C@@H](C)CN([C@H](C)CO)C3=O)cc1	-32%	12%	-13%
45	CCC(=O)Nc1ccc(N2CCOCC2)c(S(=O)(=O)Nc2ccc(Cl)cc2)c1	6%	97%[activator]	2%
46	O=C(c1cccc(Cl)c1)N1CCN(S(=O)(=O)c2ccc(Cl)s2)CC1	0%	-23%	1%
47	CN(C)S(=O)(=O)n1cnc(C(CCO)c2ncn(S(=O)(=O)N(C)C)c2CCCO)c1 (stereo not given)	1%	-11%	7%
48	Cc1c(C(=O)NNC(=O)c2csc(N3CCOCC3)n2)oc2ccccc12	-4%	1%	-9%
49	COc1ccc2sc(-c3ccccc3OC)c(-c3ccc(OCCN4CCCC4)cc3)c2c1	16%	-30%	2%
50	COC(=O)c1ccccc1NC(=O)COC(=O)CSc1nnc(N)s1	2%	2%	16%
51	CCCN(CC1CC1)C(=O)COC(=O)c1oc2c(F)cccc2c1C	-3%	-16%	6%
52	COc1cc(NC(=O)c2cccc(S(=O)(=O)N3CCCCC3)c2)cc(OC)c1OC	5%	?	19%
53	COc1ccc(OC)c(/C=C/C(=O)OCC(=O)N2CCCC2)c1	-15%	-3%	-2%
54	CCCCCC(C)NC(=O)c1cc(S(=O)(=O)N2CCCCC2)ccc1N1CCOCC1 (stereo not given)	-8%	4%	0%
55	CN1CCC23c4c5ccc(O)c4O[C@@H]2[C@H](O)C=CC3C1C5 (stereo not given in full)	-3%	-28%	9%
56	C=CC[C@H](CC(=O)NCCO)C(=O)N[C@@H](COC(=O)[C@@H](CC=C)CC(=O)OC(C)(C)C)Cc1c[nH]c2ccccc12	6%	-9%	-1%

# Looked up above:
# In RE007 growth inh, COC(=O)c1ccccc1NC(=O)COC(=O)CSc1nnc(N)s1 is listed with 16%
# In SARS PLP yeast, CCCCCC(C)NC(=O)c1cc(S(=O)(=O)N2CCCCC2)ccc1N1CCOCC1 (stereo not given) is listed with -8%

# Going on with the list:
entry	compound	SARS PLP yeast	StopGo reporter	RE007 growth inh
57	O=C1C(Cc2ccccc2)Nc2ncnc(N3CCN(c4ccccc4)CC3)c2N1Cc1ccc(Cl)cc1 (stereo not given)	3%	-17%	-1%
58	O=S1(=O)N=C(N=Nc2c(O)[nH]c3ccccc23)c2ccccc21	1%	6%	-9%
59	COc1ccc(OCC(=O)Nc2ccccc2C(=O)NC2CC2)cc1	0%	-25%	5%
60	Cc1[nH][nH]c(=O)c1C=NCc1ccc(Cl)cc1	2%	-1%	-5%
61	COc1ccc(Cl)cc1NC(=O)CN(C)C(=O)/C=C/c1ccco1	-2%	-9%	8%
62	CCCN(CC(=O)Nc1ccccc1C)C(=O)c1ccc(=O)n(Cc2ccccc2)n1	-7%	-7%	-1%
63	O=C(Nc1ccc(S(=O)(=O)N2CCCC2)cc1)c1ccc([N+](=O)[O-])o1	-5%	?	7%
64	CN(C)C(=O)CCc1ccc2c3c([nH]c2c1)[C@]1(C)[C@@H](C(=O)N2CCCCC2)C[C@H](CC(=O)NCCc2ccccn2)C(=O)N1CC3	13%	-11%	-10%
65	CCC(=O)Nc1ccc(Oc2ccc(NC(=O)CC)c(NC(=O)CC)c2)cc1	-7%	7%	0%
66	C[C@H]1COC(=O)[C@@H](CC(=O)OC(C)(C)C)C/C=C\C[C@H](CC(=O)NCCO)C(=O)N1	0%	-2%	18%
67	COCCCNC(=S)NNC(=O)C1CC1c1ccc(C(C)(C)C)cc1 (stereo not given)	-1%	0%	13%
68	COc1cc(-c2noc(C)c2C(=O)NCc2ccc3c(c2)OCO3)cc(OC)c1OC	-1%	-13%	-10%
69	COc1ccc(CCC(=O)Nc2cccc(S(=O)(=O)N3CCCC3)c2)cc1OC	0%	-7%	-6%
70	O=C(c1cccs1)N(c1ccc(Br)cc1)C1C=CS(=O)(=O)C1 (stereo not given)	-1%	-27%	9%

# Not all compounds are listed; the hit share may differ from the screen's.
